# GALR2 agonist: GALR2 receptor agonists, primary screen, cell-based | Galanin receptor type 2 (Homo sapiens), O43603 | GALR2-expressing cells, agonist activation read-out | activation, %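 (tested at 5 µM)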 | hit rate 0.48% among 140,000;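 active = above mean plus 3 SD of all compounds, about 5% in these data, not always enough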;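 note: 0% = vehicle buffer wells and 100% = reference agonist at full effect; tested in CHO reporter cells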
# PKD1 inh: inhibitors of human PKD1 kinase, biochemical, fluorescence polarization; Serine/threonine-protein kinase D1 (Homo sapiens), Q15139; PKD1 kinase fluorescence polarization assay; inhibition, %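 (about 10 µM by stock and volumes)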; hit rate 0.056% among 200,000; AID 797, 2007;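 active = inhibition of 50% or more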;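 note: controls were vehicle for no effect and a reference inhibitor for full effect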
# Target sequence (Q15139 whole entry, looked up): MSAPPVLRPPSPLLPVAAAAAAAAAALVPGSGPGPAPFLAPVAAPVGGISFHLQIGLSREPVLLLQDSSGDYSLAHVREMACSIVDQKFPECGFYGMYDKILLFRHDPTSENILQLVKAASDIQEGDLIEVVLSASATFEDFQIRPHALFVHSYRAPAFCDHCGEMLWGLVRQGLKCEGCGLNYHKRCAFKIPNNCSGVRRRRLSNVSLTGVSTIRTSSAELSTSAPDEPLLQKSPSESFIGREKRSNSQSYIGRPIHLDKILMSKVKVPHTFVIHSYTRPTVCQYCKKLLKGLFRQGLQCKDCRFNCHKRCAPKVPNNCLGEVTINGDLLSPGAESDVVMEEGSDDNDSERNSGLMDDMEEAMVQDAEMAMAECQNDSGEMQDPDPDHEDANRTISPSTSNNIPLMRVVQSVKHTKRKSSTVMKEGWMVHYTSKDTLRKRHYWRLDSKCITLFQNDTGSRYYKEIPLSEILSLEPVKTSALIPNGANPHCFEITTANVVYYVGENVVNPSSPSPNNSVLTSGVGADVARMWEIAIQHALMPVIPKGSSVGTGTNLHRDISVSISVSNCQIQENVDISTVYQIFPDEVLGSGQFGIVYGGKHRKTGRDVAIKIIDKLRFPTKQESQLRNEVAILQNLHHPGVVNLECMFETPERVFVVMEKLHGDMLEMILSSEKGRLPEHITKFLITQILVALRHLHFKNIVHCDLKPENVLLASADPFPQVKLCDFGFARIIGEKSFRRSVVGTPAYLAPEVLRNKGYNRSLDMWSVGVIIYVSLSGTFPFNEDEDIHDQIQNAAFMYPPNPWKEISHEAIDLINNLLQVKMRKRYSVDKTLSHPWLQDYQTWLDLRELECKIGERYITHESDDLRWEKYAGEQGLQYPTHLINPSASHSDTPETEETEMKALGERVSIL
# Insulin prom inh: inhibitors of insulin promoter-driven GFP, primary screen, imaging, TRM-6 cells (human fetal islet line), eGFP reporter, cell count; reporter expression induced with tamoxifen; inhibition, % at 2 µM; hit rate 0.9% among 130,000; AID 1273, 2008;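 active = inhibition above the mean plus 3 SD, with well images judged a real hit on visual review, cut at about 60% in these data, passing the limit was not always enough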
# RGS16-Gao: modulators of RGS16 binding to Galphao, primary screen, biochemical, human proteins, multiplexed bead flow cytometry; hit rate 0.38% among 220,000; AID 1441, 2008; Regulator of G-protein signaling 16 (Homo sapiens) + Guanine nucleotide-binding protein …; bead-based flow cytometry RGS16-Galphao binding, fluorescence; actives lie on both sides; binding response (% of control), % at 10 µM;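 active = below 25% or above 175%, edge rows of some plates excepted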;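 note: Galphao activated by GDP with aluminum fluoride before binding; 100% = wells without compound and 0% = beads without RGS; some results beyond the cut were filed as inactive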
# HSV replic up: enhancers of HSV replication in host cells, fold increase, host cell viability; maximum fold increase; HSV replication augmentation in cells; AID 1956, 2009; hit rate 0.005% among 220,000;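 active = peak rise of 1.5-fold or more in the series; tested in PC3 cells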;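 note: first round at 10 µM; read as green reporter fluorescence; hits show the peak of a series up to 25 µM; 1 = signal of infected wells without compound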
# Insulin prom inh cell count: further read-out of Insulin prom inh, marked with its call; normalized cell count, %; measured here: cell count, toxicity; reference of the scale not given here;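 cells exposed to compound for 48 h; stained nuclei by imaging scaled within each plate; lower means fewer cells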
# HSV replic up primary fold: also measured in HSV replic up; calls as there; fold increase; compound at 10 µM; measured here: primary screen fold increase 10 uM; tested in PC3 cells;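 GFP signal in the first replicate; 1 = infected wells without compound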
# Numbers without * were called inactive; i = inactive; nt = not tested or not shown.
# Order of results – GALR2 agonist	Insulin prom inh cell count	PKD1 inh	RGS16-Gao	HSV replic up primary fold	Insulin prom inh	HSV replic up
> Fc1cc2nc(-c3ccncc3)[nH]c2cc1F
    -1.0	105	-12	102	nt	61	nt
> CC(=O)Nc1ccc(/C(C)=N/NC(=O)c2ccc(F)cc2)cc1
    0.0	105	1	97	0.87	-23	i
> O=C(Nc1cccc(Cl)c1)Nc1nnc(-c2ccncc2)s1
    0.9	128	3	101	0.72	-52	i
> Cc1[nH][nH]c(=O)c1C(c1c(C)[nH][nH]c1=O)c1cn(Cc2ccc(F)cc2)c2ccccc12
    -1.7	77	-11	123	0.69	-8	i
> Cc1ccc(C(=O)Oc2coc(CSc3nnc(NC(=O)C4CC4)s3)cc2=O)cc1C
    0.0	nt	-10	114	1	nt	i
> O=c1ccnc(SCCC(F)=C(F)F)[nH]1
    nt	90	-3	100	0.91	-82	i
> COc1ccc(N(CC(=O)Nc2ccc(C)cc2C)S(=O)(=O)c2ccccc2[N+](=O)[O-])c(OC)c1
    nt	nt	7	108	0.92	nt	i
> Cc1ccccc1NC(=O)c1sc2nc3c(c(-c4ccco4)c2c1N)CCCC3
    -0.6	nt	1	100	0.94	nt	i
> COc1ccc(NC(=O)Cn2nnc(-c3ccccc3NS(=O)(=O)c3ccc(OC)cc3)n2)cc1
    2.2	26	0	101	0.71	-24	i
> COc1ccc(CNC(=O)C/C(C)=N/NC(=O)Cc2ccc(OC)cc2)cc1
    -2.4	80	-9	99	0.96	-12	i
> CC(=O)Nc1ccc(OC(=O)c2ccco2)cc1
    -2.1	77	3	77	1	38	i
> CCc1cc(=O)oc2cc(C)c3c(C)coc3c12
    -1.9	133	0	99	0.84	-14	i
> O=[N+]([O-])c1cc(Cl)ccc1NCCNS(=O)(=O)c1ccccc1
    -1.8	nt	-3	101	1	nt	i
> COC(=O)c1ccc(OC)c(CSc2nnc(COc3cccc(C)c3)o2)c1
    0.2	nt	-9	104	0.84	nt	i
> COC(=O)c1ccc(-n2nnnc2SCC(=O)NCc2cccc(C(=O)O)c2)cc1
    -1.1	95	-9	102	0.87	-7	i
> Cc1cc2cc(CNC(=O)c3ccco3)ccc2n1C
    nt	nt	nt	99	1.1	nt	i
> Cn1c(CNC(=O)Nc2ccccc2)nnc1SCc1ccccc1
    -1.5	nt	-14	95	1	nt	i
> COc1ccccc1NC(=O)CCN1CCCCCC1
    0.1	124	-4	-2.5*	1.1	18	i
> CC(C)c1nnc(SCC(=O)N2CCOCC2)n1C
    -2.7	98	-8	94	0.91	21	i
> Cc1ccc(S(=O)(=O)N2CCCC2C(=O)OCC(=O)Nc2ccc3c(c2)OCO3)cc1 (stereo not given)
    -2.6	nt	-13	103	1.1	nt	i
> Cc1csc(NC(=O)CSc2nnc(-c3ccccc3)o2)n1
    -0.7	108	-5	98	0.8	-13	i
> CCN(CC)CCNC(=O)C(=O)NCC1OCCN1S(=O)(=O)c1ccc2c(c1)OCCO2 (stereo not given)
    nt	36	-8	111	0.95	9	i
> O=[N+]([O-])c1ccccc1OCCCN1CCOCC1
    -3.9	92	3	113	0.95	7	i
> CCOc1cc(/C=N/Nc2nncc(-c3ccccc3)n2)ccc1O
    nt	63	-8	110	0.95	10	i
> C/C(=N\NC(=O)C(C)Oc1ccc([N+](=O)[O-])cc1)c1ccccn1 (stereo not given)
    -0.1	nt	-1	101	nt	nt	nt
> Cc1nc2ncnn2c(C)c1CCC(=O)N1CCN(Cc2ccccc2)CC1
    -1.7	103	-9	101	1	36	i
> O=C(NC1CCCCC1)c1ccc(Cn2cc(Cl)cn2)cc1
    -2.7	146	-1	103	1	13	i
> Cc1nc(-c2cccc(Br)c2)ccc1C(=O)O
    nt	nt	-5	102	0.69	nt	i
> O=C1CCCC2=C1C(c1ccc3c(c1)OCO3)c1c([nH]n(-c3ccccc3)c1=O)N2 (stereo not given)
    -0.9	nt	-3	102	0.98	nt	i
> COc1ccc(C(=O)Cc2cnn(-c3ccccc3)c2)c(O)c1
    -1.9	52	-10	105	1.1	38	i

# The list goes on.
# Order of results – GALR2 agonist	Insulin prom inh cell count	PKD1 inh	RGS16-Gao	HSV replic up primary fold	Insulin prom inh	HSV replic up
> COc1cc(/C=N/NC(=O)c2ccc(COc3cc(C)ccc3C(C)C)cc2)cc(OC)c1O
    8.4*	110	-12	101	0.83	23	i
> O=C(NCCc1ccccc1)c1ccc(=O)oc1
    -2.3	91	18	103	0.94	20	i
> COC(=O)c1ccc(N2CCS(=O)(=O)CC2)cc1
    nt	74	0	102	0.8	40	i
> COc1ccc(C(=O)NNC2=CC(=O)CC(C)(C)C2)cc1
    -0.1	72	-5	106	0.95	-10	i
> CC1CC(=O)c2cnc(Nc3cccc(C(F)(F)F)c3)nc2C1 (stereo not given)
    1.6	87	-17	103	0.93	-56	i
> CCCN1CN(Cc2ccco2)c2nc3ccccc3n2C1
    -3.8	nt	-3	99	0.94	nt	i
> Cc1cc(NC(=O)CSCC(=O)N(c2ccc(F)cc2)C(C(=O)NC2CCCCC2)c2ccc(O)c(O)c2)no1 (stereo not given)
    -0.5	62	-5	140	1.1	17	i
> CCOC(=O)c1ccccc1N1C(=O)CSC1=S
    -0.1	175	-4	99	0.92	29	i
> COc1ccc(C(CC(=O)Nc2ccc(Cl)cc2F)NC(=O)C(F)(F)F)cc1 (stereo not given)
    -1.9	nt	-5	138	0.92	nt	i
> O=C(Nc1ccc2oc(-c3ccc(Cl)c(Cl)c3)nc2c1)c1ncn[nH]1
    -3.5	141	9	103	0.86	-10	i
> COc1ccc(N2C(S)=C(C#N)C(=O)NC2c2ccco2)cc1 (stereo not given)
    -0.6	101	-4	101	0.9	17	i
> O=C(O)CCCCc1nc2ccccc2s1
    -1.6	117	-5	96	0.96	12	i
> O=S1(=O)CCN(C(CCO)c2cccc(C(F)(F)F)c2)CC1 (stereo not given)
    nt	53	-5	104	1.1	-244	i
> Cc1ccc(C(=O)C(C)Oc2cccc(NC(=O)c3ccco3)c2)cc1 (stereo not given)
    -2.1	56	-8	104	0.94	-99	i
> c1cc(CNCCCN2CCOCC2)ccn1
    -3.8	168	-6	99	1.1	25	i
> C=CCN(C(=O)CNC(=O)c1cccs1)C(C(=O)NC(C)(C)C)c1ccccc1 (stereo not given)
    nt	nt	5	97	1	nt	i
> C/C(=N\Nc1ccccn1)c1ccc2c(c1)OCO2
    nt	49	-3	60	nt	43	nt
> Cn1nc(C(=O)Nc2nc(-c3ccc(F)cc3)cs2)ccc1=O
    nt	nt	nt	100	1	nt	i
> COc1ccccc1NS(=O)(=O)c1ccc(O)c(C(=O)OCC(=O)c2ccc(Cl)cc2Cl)c1
    nt	nt	-1	99	0.97	nt	i
> COC(=O)/C=c1\sc2ncnn2c1=O
    -2.1	121	-6	121	0.97	11	i
> O=C1COc2ccc(C(=O)COC(=O)CNC(=O)c3ccco3)cc2N1
    nt	36	-3	107	1	-82	i
> CCN(C(=O)c1ccc(C(C)(C)C)cc1)c1nnc(Cn2nnc3ccccc32)s1
    -1.9	nt	-7	93	0.83	nt	i
> O=C(O)c1ccc(/C=C2\SC(=Nc3ccccc3)N(c3ccccc3)C2=O)cc1
    nt	182	-15	110	nt	29	nt
> O=c1nc2ccccc2c2n1CC(CN1CCN(c3ccccc3F)CC1)N2 (stereo not given)
    -0.6	85	9	114	0.92	13	i
> O=C1/C(=C/c2ccco2)SC(=S)N1c1cccnc1
    nt	nt	nt	92	1.2	nt	i
> Cc1ccc(S(=O)(=O)N2CC(=NO)C2)cc1
    -3.8	nt	0	106	0.75	nt	i
> C/C(=N/NC(=O)c1ccc(C)s1)c1cccc(NC(=O)COc2ccc(Cl)cc2C)c1
    -2.8	nt	-5	94	0.98	nt	i
> Cc1csc2nc(CNC(=O)C3CC=CCC3C(=O)O)cn12 (stereo not given)
    -1.2	nt	-11	101	0.99	nt	i
> CNC(=O)c1cc2ccc(OC)cc2oc1=O
    -2.1	93	-2	113	1	50	i
> CC1=C/C(=N\NC(=S)Nc2cccnc2)CC(C)(C)C1
    nt	nt	1	101	0.86	nt	i

# 3 entries already listed, sorted by molecular weight, descending:
# Order of results – GALR2 agonist	Insulin prom inh cell count	PKD1 inh	RGS16-Gao	HSV replic up primary fold	Insulin prom inh	HSV replic up
> C=CCN(C(=O)CNC(=O)c1cccs1)C(C(=O)NC(C)(C)C)c1ccccc1 (stereo not given)
    nt	nt	5	97	1	nt	i
> Cn1nc(C(=O)Nc2nc(-c3ccc(F)cc3)cs2)ccc1=O
    nt	nt	nt	100	1	nt	i
> COC(=O)/C=c1\sc2ncnn2c1=O
    -2.1	121	-6	121	0.97	11	i

# New compounds follow:
# Order of results – GALR2 agonist	Insulin prom inh cell count	PKD1 inh	RGS16-Gao	HSV replic up primary fold	Insulin prom inh	HSV replic up
> Cc1ccc(NC(=O)COc2ncnc3c(Cl)cc(Cl)cc23)cc1[N+](=O)[O-]
    -0.8	82	-3	160	0.96	41	i
> Cn1c(CSCc2ccc(F)cc2)nnc1SCC(=O)Nc1nccs1
    -1.7	123	-3	100	0.8	-28	i
> Cc1cccc(C)c1NC1=NCCCCC1
    nt	nt	-4	99	0.87	nt	i
> O=C(CN1CCCC1)NN=C(c1ccccc1)c1ccccc1
    nt	nt	-4	99	0.91	nt	i
> NC(=O)CCS(=O)(=O)c1ccc(Cl)cc1
    nt	nt	-12	139	1.2	nt	i
> CC1(C)CCC(C)(C)NC(=S)N1
    -1.7	77	-6	15*	0.95	-17	i
> N/C(Cc1ccc([N+](=O)[O-])cc1)=N\OC(=O)C(c1ccccc1)c1ccccc1
    -1.6	156	-3	107	0.85	42	i
> CCOc1ccc(-n2c(N)c(C(=O)NCc3cccnc3)sc2=S)cc1
    -0.9	112	-12	99	1	33	i
> COc1ccc(C(=O)Nc2cccc(OC)c2)cc1
    -1.3	83	-9	105	0.89	-18	i
> Cc1cc(=O)n2c(-c3ccccc3C)n[nH]c2n1
    -2.2	nt	-5	104	1	nt	i
> Cc1ccc(NC(=S)NNC(=O)Cn2nc(C(F)F)cc2C(F)F)cc1
    -2.1	46	3	108	0.95	7	i
> Cc1cccc(NC(=O)/C(C#N)=C/c2cn(CC(=O)NCc3ccco3)c3ccccc23)c1
    31*	130	5	96	0.77	0	i
> O=C(CCCn1c(=O)[nH]c2cc(Cl)ccc2c1=O)NC1CCCCCC1
    -3.7	36	-5	105	0.9	0	i
> Cc1nn(-c2ccccc2)c(C)c1/C=N/N1CCN(c2ccccn2)CC1
    nt	122	11	103	0.88	33	i
> O=C(COC(=O)Cc1ccc(S(=O)(=O)N2CCOCC2)s1)NCc1ccc(Cl)cc1
    -4.4	nt	-6	82	0.8	nt	i
> COc1ccc(N2C(=O)CC(N3CCCCC3)C2=O)cc1 (stereo not given)
    nt	nt	-4	97	1.1	nt	i
> CCOc1ccc(NC(=O)CCN2CCN(S(=O)(=O)c3ccc(Cl)cc3)CC2)cc1
    269*	105	-1	113	1.1	-67	i
> Cc1cc(Br)ccc1SCC(=O)OCC(=O)NCc1ccco1
    nt	nt	nt	80	1.2	nt	i
> COc1ccccc1OCCOCCOc1ccc(C)cc1Br
    -0.5	55	0	22*	0.99	-59	i
> CN1CCN(C(=O)N2c3ccccc3CCc3ccccc32)CC1
    nt	130	-2	102	1	-22	i
> COCCCNC(=O)CN(c1ccc(Cl)c(Cl)c1)S(C)(=O)=O
    -2.1	nt	-2	97	1	nt	i
> Clc1ccc(OCc2nn3c(-c4ccccc4)nnc3s2)c(Cl)c1
    -1.5	94	5	89	0.78	8	i
> COc1ccc(C(=O)NCC(=O)OC2CCCCC2=O)cc1 (stereo not given)
    -2.2	nt	-10	105	1	nt	i
> O=S(=O)(c1ccccc1)N1CCN(c2nnc(-c3ccccc3)c3ccccc23)CC1
    nt	nt	nt	100	0.91	nt	i
> O=C(O)c1ccc(NS(=O)(=O)c2cccc3nsnc23)cc1
    -3.0	nt	-5	95	0.95	nt	i
> CCCS(=O)(=O)N1CCCC(C(=O)NCCCN2CCN(c3cccc(Cl)c3)CC2)C1 (stereo not given)
    -1.0	nt	1	668	nt	nt	nt
> CCCC(C)NC(=O)COc1ccc(S(=O)(=O)N2CCCC2)cc1 (stereo not given)
    nt	nt	8	106	0.97	nt	i
> Cc1cc(C(=O)CN2CCCC(C)C2)c(C)n1-c1ccc(F)cc1 (stereo not given)
    -1.2	nt	-2	103	1.1	nt	i
> COc1cccc(/C=N/N=C(\N)c2nonc2N)c1O
    nt	nt	1	99	0.98	nt	i
> COc1ccc(OC)c(S(=O)(=O)NCc2csc(-c3ccccc3)n2)c1
    -1.2	104	-6	105	1	-12	i
> COC(=O)CN(Cc1ccccc1)S(=O)(=O)c1ccc(OC)c(OC)c1
    -0.9	nt	10	100	1.1	nt	i
